Compound activity deposited in PubChem by several laboratories.
YopH PTP inh – blocks Yersinia enterocolitica YopH tyrosine phosphatase; fluorescence Ex485/Em525; inhibition, %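 (about 10 µM by stock and volumes)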; 140,000 tested, 0.16% active; AID 898;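 active = inhibition of 50% or more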;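 note: controls were vehicle for no effect and minimum signal wells for full effect; inactives centre near -20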
Mtb bLac sens – beta-lactam sensitization of Mtb H37Rv. inhibition, % at 25 µM. M. tuberculosis H37Rv growth with meropenem, percent inhibition; hits of this screen are not shown here. 330,000 tested, 0.27% active;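 active = about 74% or more and at least 40 points above the plate without the antibiotic, then above 30% in a dose series; inconclusive = first-round hits that could not be retested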;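 note: growth measured after seven days incubation then overnight dye step; 0% = bacteria only wells and 100% = bacteria with antibiotic; twin plates without the antibiotic show which effects depend on it; some results filed as inactive read as strong as hits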
Mtb H37Rv – M. tuberculosis H37Rv growth inhibitors, H37Rv strain (AID 1626); M. tuberculosis H37Rv growth inhibition; higher % means a stronger effect; inhibition, % at 10 µM; hits with a dose series show IC50 in µM; 220,000 tested, 0.95% active;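 active = confirmed in a dose series; inconclusive = inhibition above 80% but not taken into the dose series; inactive = below 80% or under 30% at every dose of the series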;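 note: bacteria incubated seven days before Alamar blue readout; 0% = bacteria only wells and 100% = bacteria with antibiotic wells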
Arbovirus anti – blocks arbovirus infection. arbovirus infection cell-based antiviral screen. AID 1251. 200,000 tested, 0.37% active. inhibition, % at 10 µM;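 active = inhibition from about 30%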;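 note: bluetongue infection of BSR cells; cell survival read as ATP light after 72 h; 0% = infected wells without compound and 100% = uninfected wells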
RecA intein inh – blocks M. tuberculosis RecA intein splicing | cell-free RecA intein splicing, fluorescence | 290,000 tested, 0.75% active | P9WHJ3 | inhibition, %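 (about 9 µM by stock and volumes)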; in the data active = inhibition above about 30%; inconclusive = no clear call, values can overlap the other calls;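 note: 0% = vehicle wells and 100% = reference inhibitor control wells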
Target sequence (P9WHJ3 whole entry, looked up): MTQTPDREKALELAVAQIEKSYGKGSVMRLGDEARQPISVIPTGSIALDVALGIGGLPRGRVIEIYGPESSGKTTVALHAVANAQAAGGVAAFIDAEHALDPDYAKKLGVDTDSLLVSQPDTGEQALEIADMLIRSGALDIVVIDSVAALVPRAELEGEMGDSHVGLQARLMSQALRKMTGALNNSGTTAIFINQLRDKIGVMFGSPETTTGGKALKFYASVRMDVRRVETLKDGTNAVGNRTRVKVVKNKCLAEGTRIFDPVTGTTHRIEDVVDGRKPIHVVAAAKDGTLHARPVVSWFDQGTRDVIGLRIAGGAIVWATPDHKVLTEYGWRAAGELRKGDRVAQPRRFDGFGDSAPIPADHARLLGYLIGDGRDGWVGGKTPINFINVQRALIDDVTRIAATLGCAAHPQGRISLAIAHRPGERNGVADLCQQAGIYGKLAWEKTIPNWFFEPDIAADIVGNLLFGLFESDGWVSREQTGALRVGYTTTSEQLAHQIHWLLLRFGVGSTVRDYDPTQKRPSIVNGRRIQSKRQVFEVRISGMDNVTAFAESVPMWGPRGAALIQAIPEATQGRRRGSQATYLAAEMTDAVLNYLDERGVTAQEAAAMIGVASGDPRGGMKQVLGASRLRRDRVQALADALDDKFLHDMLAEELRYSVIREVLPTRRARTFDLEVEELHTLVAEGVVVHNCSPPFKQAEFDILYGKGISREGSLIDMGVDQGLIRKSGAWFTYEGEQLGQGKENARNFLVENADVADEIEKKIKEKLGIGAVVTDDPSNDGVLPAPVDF
Arbovirus anti repeat – second read-out of Arbovirus anti, no call of its own (marks repeat the call); inhibition, %; measured here: 10K subset replicate screen; many hits read low in the repeat;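 first of two repeat runs on a subset; 0% = infected and 100% = uninfected wells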
An asterisk follows results filed as active; u = inconclusive; x = no result given. Some of the compounds tested; the hit share may differ from the screen's.

SMILES	YopH PTP inh	Mtb bLac sens	Mtb H37Rv	Arbovirus anti	RecA intein inh	others
CCOC(=O)Nc1ccc2c(CN3C(=O)NC4(CCCC4)C3=O)cc(=O)oc2c1	-1.5	x	-7.5%	2.2	x
CCN(CC)S(=O)(=O)c1cccc(C(=O)NCCCn2ccnc2)c1	x	0.0	-7.5%	x	0.0
Cc1nc(Cl)sc1C(=O)Nc1ccc(C(C)(C)C)cc1	x	1.1	x	x	7.5
Cc1cc(C)c2oc(C(=O)NCc3ccccc3)cc(=O)c2c1	x	-1.9	x	x	-2.8
Cc1cc(C)c(NC(=O)NC(=O)c2cccc(F)c2)c(C)n1	-38.0	7.8	-5.6%	4.0	-1.3
COC1=CC(=O)OC12CCCCC2	-18.9	1.9	-4.9%	12.7	0.3	Arbovirus anti repeat=0.9
COc1ccc(NC(=O)CSc2nnc(-c3cccnc3)n2Cc2ccco2)c(OC)c1	-16.3	x	-10.9%	0.3	-0.8
Cc1ccc(SCC(=O)OCC(=O)NCCCc2ccccc2)cc1	x	5.0	x	x	2.6
CN(Cc1ccccc1F)c1ccc(S(=O)(=O)N2CCCC2)cn1	x	-5.2	2.5%	1.9	1.1
O=C(/C=C/c1cc2c(cc1Br)OCO2)NCc1ccc(Cl)cc1	-8.1	3.9	-4.8%	-2.4	-1.0
COc1ccc(C(C(=O)NC2CCCC2)N(C(=O)c2ccco2)c2ccc3c(c2)OCO3)cc1OC (centres undefined)	-4.5	-13.5	-4.8%	-2.8	-1.0
O=C(CSc1nnc(-c2ccco2)n1CC1CCCO1)c1ccc(F)cc1 (centres undefined)	-35.4	-3.2	-15.7%	2.4	x
Cc1cc(C)cc(NC(=O)CS(=O)(=O)c2cccc3nsnc23)c1	x	3.1	x	x	-0.9
C=C(C)CN1C(=O)c2ccccc2C1=O	2.5	6.3	-8.3%	17.5	-1.3
CN1C(=O)N(C)C(=O)C2(Cc3cc(NC(=O)c4ccccc4Cl)ccc3N3CCCC32)C1=O (centres undefined)	x	-1.7	x	x	-12.9
COc1cc(C(=S)N2CCCCC2)ccc1O	-13.0	5.9	-1.5%	6.4	x
CC1(C)CC(=O)C=C(NCCN2CCNCC2)C1	-8.7	-0.5	-11.9%	0.5	0.9
COc1ccc(C2N=C(c3ccccc3)C(C)(C)N2O)cc1OC (centres undefined)	4.7	2.9	0.5%	5.2	1.8
CNc1oc(-c2ccc(Cl)cc2)nc1P(=O)(c1ccccc1)c1ccccc1	-22.9	u	-2.2%	-39.8	6.6
Cc1ccc(S(=O)(=O)Nc2ccc3c(c2)nc(CCN2CCCC2)n3C)cc1	x	1.8	x	x	2.0
O=C(c1cccc2cccc(O)c12)N1CCCCC1	-37.5	-1.4	16.9%	6.9	-1.1
COc1ccc(C(=O)NCC(=O)O)cc1	-1.3	-2.7	-4.3%	1.6	-2.2
NNc1ccc2nncn2n1	x	8.4	-6.5%	x	-4.5
O=C(CSc1ncn[nH]1)Nc1ccccc1Sc1ccccc1	-17.0	-8.4	-1.9%	17.2	0.6
CCOc1ccc(CC(=O)Nc2nccs2)cc1	x	-1.9	6.4%	3.8	-1.6

Fetched one by one from the entries so far, three records:
SMILES	YopH PTP inh	Mtb bLac sens	Mtb H37Rv	Arbovirus anti	RecA intein inh	others
COc1ccc(C(C(=O)NC2CCCC2)N(C(=O)c2ccco2)c2ccc3c(c2)OCO3)cc1OC (centres undefined)	-4.5	-13.5	-4.8%	-2.8	-1.0
Cc1nc(Cl)sc1C(=O)Nc1ccc(C(C)(C)C)cc1	x	1.1	x	x	7.5
CN1C(=O)N(C)C(=O)C2(Cc3cc(NC(=O)c4ccccc4Cl)ccc3N3CCCC32)C1=O (centres undefined)	x	-1.7	x	x	-12.9

(further entries)
SMILES	YopH PTP inh	Mtb bLac sens	Mtb H37Rv	Arbovirus anti	RecA intein inh	others
O=C(N/N=C/c1cccs1)c1n[nH]c2c1CCC2	-31.6	3.8	-11.1%	-4.9	-0.9
O=C(COC(=O)c1cc(S(=O)(=O)Nc2ccccc2Cl)ccc1O)Nc1nc2ccccc2s1	x	x	-0.8%	9.2	x
CCc1ccccc1NC(=O)CSc1ncn[nH]1	-12.6	4.7	-11.6%	6.9	1.9
COc1ccc(C(C(N)=O)c2ncc(C(F)(F)F)cc2Cl)cc1 (centres undefined)	x	-11.6	5.7%	9.8	1.0
Cc1ccc2nc(SCC(=O)NCc3ccc4c(c3)OCO4)nc(=O)n2c1	x	-9.5	x	x	9.0
Oc1[nH]c2ccccc2c1N=Nc1ccccc1	x	-6.9	10.2%	x	-3.5
Cc1ccc(S(=O)(=O)NNC(=O)c2cnn(-c3ccccc3)c2-n2cccc2)cc1	-15.0	-1.5	-6.9%	-2.5	5.1
COc1ccc(NC2=NC(=S)N(c3ccccc3C)C23CCCCC3)cc1	-6.9	0.6	5.1%	-0.1	3.5
CCNC(=O)CC1C(=O)N(c2ccc(C)cc2)C(=O)N1CCOC (centres undefined)	x	-1.0	x	x	-0.4
CCC1Oc2ccc(C)cc2N(CC(=O)N(Cc2cccnc2)Cc2ccc(C)o2)C1=O (centres undefined)	-0.3	-7.6	4.4%	0.9	5.0
Nc1nc2nc(-c3ccc(OCc4ccccc4)cc3)cc(C(F)(F)F)n2n1	-10.5	0.6	-1.2%	-1.9	-12.0
O=C(O)CC/C(=N\NC(=O)c1ccncc1)c1ccccc1	x	99.0	x	x	-1.8
COc1cccc(NC(=O)N2CCCC2C(=O)NC2CC2)c1 (centres undefined)	-5.0	-4.1	-1.1%	1.8	-9.4
CCOC(=O)c1ccc(Oc2ccc(C(F)(F)F)cn2)cc1	x	-2.9	1.3%	0.2	1.9
CCCc1nc(SCC(=O)NCC2CCCO2)c2c(=O)n(C)c(=O)n(C)c2n1 (centres undefined)	x	-9.3	x	x	-1.4
CCS(=O)(=O)c1nc(S(=O)(=O)c2ccc(Cl)cc2)c(NCc2ccccn2)s1	x	-8.7	0.5%	4.1	-1.2
O=C(Cn1nc(Cc2cccnc2)c2ccccc2c1=O)Nc1cccnc1Cl	x	5.3	-2.8%	0.8	-2.1
CCN(CC)C(=O)CSc1nc(O)c(Cc2ccc(OC)cc2)c(=O)[nH]1	x	5.2	x	x	1.6
O=c1cc(O)c2sc(Nc3ccc(F)cc3)nc2[nH]1	-17.6	14.8	0.6%	-2.7	-58.3
CCCC(C)c1nc(C(N)=O)c2[nH]c(=O)n(-c3ccc(OC)c(OC)c3)c2n1 (centres undefined)	x	u	x	x	0.6
C=CCCCCCCCCC(=O)Nc1c[nH]c(=O)[nH]c1=O	-68.5	9.8	10.7%	-4.8	5.2
CCN(CC)CC(=O)Nc1ccc([N+](=O)[O-])cc1	x	0.7	2.0%	7.8	3.1
CC(=O)Nc1ccc(NC(=O)CSc2nnnn2-c2ccc(F)cc2)cc1	x	0.1	x	x	3.0
CNC(=O)Nc1nnc(C(C)(C)C)s1	-24.4	-2.3	-9.4%	3.8	-0.9
CC(C)C(=O)Nc1ccc(-c2csc(-c3ccccc3)n2)cc1	-31.1	6.8	-3.0%	2.4	-0.3
Next part:
SMILES	YopH PTP inh	Mtb bLac sens	Mtb H37Rv	Arbovirus anti	RecA intein inh	others
CC(C)C(NC(=O)c1ccc(C(C)(C)C)cc1)C(=O)NCCc1ccccn1 (centres undefined)	x	1.6	3.2%	1.2	-1.4
Cc1nn(-c2ccccc2)c2c1C(=O)N(c1ccccc1)C(=O)C(C)(C)C2	-13.7	5.9	-6.3%	0.9	3.3
CCc1ccc(C2(O)CC(C(F)(F)F)=NN2C(=O)Cc2ccc([N+](=O)[O-])cc2)cc1 (centres undefined)	17.4	-1.8	-3.2%	-10.3	8.6
CC(NC(N)=O)C(=O)OCC(=O)c1ccc(-c2ccccc2)cc1 (centres undefined)	x	0.3	0.8%	-4.6	-0.1
COc1ccc(CN2C(=O)c3cccc4cccc2c34)cc1F	x	-3.1	x	x	-3.7
COc1ccccc1/C=C/C(=O)NCC(=O)N/N=C/c1cccnc1	-16.3	2.9	-4.8%	7.8	1.2
CC(=O)c1cccc(CN2CCN(Cc3ccccc3)C(CCO)C2)c1 (centres undefined)	x	4.8	3.0%	-1.9	1.7
COC(=O)c1ccc(COn2nnc3ccccc32)cc1	x	6.3	6.8%	11.8	-3.2
CC(C)NC(=O)C(=O)NCCN1CCN(C(=O)c2ccc(C(C)(C)C)cc2)CC1	x	-6.1	0.9%	4.5	-2.2
CC[N+](CC)(CC)CC(=O)Nc1c(C)cccc1C	x	-1.2	-10.4%	x	1.3
CCOC(=O)c1c(-c2ccco2)csc1NC(=O)COC(=O)c1cnccn1	x	-2.3	x	x	3.4
Cc1cccc(N2C(=O)c3ccc(C(=O)Nc4cccc(C(=O)O)c4)cc3C2=O)c1	x	4.3	x	x	0.2
CCOC(=O)N1CCN(C(=O)CCN2C(=O)c3ccccc3S2(=O)=O)CC1	x	2.0	x	x	-2.4
COc1ccccc1Nc1ccc(Nc2ccccc2OC)nn1	-13.1	9.1	4.4%	-4.6	3.0
Cc1ccc(/C=N/NC(=O)C(c2ccncc2)N2CCOCC2)cc1 (centres undefined)	x	-6.7	2.0%	x	x
CC(C)C1=NOC(C(=O)N2CCC(N3CCC(C(=O)N4CCOCC4)CC3)CC2)C1 (centres undefined)	x	6.2	-2.6%	5.9	-0.8
O=C(Cc1ccccc1)NCCn1ccc2ccccc21	-26.5	-2.1	2.1%	4.9	13.7	Arbovirus anti repeat=1.7
CC(Nc1ccc(Cl)cc1)C(=O)NN (centres undefined)	x	-4.0	-3.5%	x	0.5
CCn1c(COc2cccc(C)c2)nc2ccccc21	-19.1	36.5	-6.5%	0.4	5.5
COc1ccc2nc(-c3ccccc3)nc(SCC(=O)NCC3CCCO3)c2c1 (centres undefined)	x	8.1	x	x	0.7
Cc1cccc(OCc2n[nH]c(=S)n2-c2ccccc2)c1	x	3.0	2.0%	-2.2	-1.1
Fc1ccc(NC(=S)NCCN2CCOCC2)cc1	x	-10.9	1.3%	0.2	-0.3
O=C(N/N=C/c1ccccc1OCC(=O)N1CCCC1)C(=O)Nc1ccccc1F	-12.7	91.0	u	-4.0	-0.5
Cc1cccc(-n2ncc3c(NCc4ccco4)ncnc32)c1	-39.6	8.0	x	13.8	1.7
COCCCNC(=O)Cn1nnc(-c2ccccc2NC(=O)c2ccc(F)cc2)n1	-23.8	-1.9	2.5%	3.4	-1.6
(continued)
SMILES	YopH PTP inh	Mtb bLac sens	Mtb H37Rv	Arbovirus anti	RecA intein inh	others
COc1cccc(-n2c(C)nc3cc(C(=O)O)ccc32)c1	-81.6	0.4	-1.7%	4.4	0.8
COc1ccc(-c2[nH]ncc2CN(C)C(C)c2ccncn2)c(F)c1 (centres undefined)	x	-2.7	8.2%	4.7	15.3
COc1ccc(CC2(CO)CCN(C/C=C/c3ccccc3OC)CC2)cc1	x	-3.8	-6.3%	-18.4	0.8
Cc1cc(-c2nc(C)c(C(=O)NNS(=O)(=O)c3cccc(C(F)(F)F)c3)s2)no1	x	2.6	-5.8%	x	-2.1
COc1cc(NC(=O)c2ccc(N)nc2)cc(C(=O)Nc2cccc(C(F)(F)F)c2)c1	x	98.8	7.8%	x	9.3
COc1cc(O)c(C(=O)/C=C/c2ccccc2)c(OC)c1	x	66.4	0.2%	x	6.3
NC(=O)c1cc2ccccc2o/c1=N/NC(=O)c1cccs1	x	-4.7	3.1%	-0.9	3.4
O=C(COc1ccc(F)cc1Br)N1CCN(S(=O)(=O)/C=C/c2ccccc2)CC1	x	-5.0	2.8%	4.9	-2.4
CCC(CO)Nc1nc2ccc(Cl)cc2c2ccccc12 (centres undefined)	x	16.1	9.2%	x	-9.0
COc1ccc(OC)c(/C=N/N=C2\SCC(=O)N2Cc2ccco2)c1	-16.4	2.5	0.5%	-7.9	0.7
N#CCCn1cc(/C=C2\NC(=S)N(c3ccccc3)C2=O)c(-c2ccc(-c3ccccc3)cc2)n1	x	-5.9	u	-13.4	1.5
C/C(=N\NC(=O)c1ccc(C)cc1)C1C(=O)c2ccccc2C1=O	-20.0	92.8	5.5%	28.7	9.4
NC(N)=NS(=O)(=O)c1ccc(NC(=S)NC(=O)/C=C/c2ccc(F)cc2)cc1	x	1.4	x	x	1.7
COc1cc(CC(=O)OCC(=O)Nc2cc(S(=O)(=O)N3CCCC3)ccc2Cl)cc(OC)c1OC	-4.5	5.3	-9.9%	5.4	2.2
N#Cc1c(NC(=O)CSc2ncn[nH]2)sc2c1CCCCC2	-25.3	u	29.2%	-22.7	9.4
O=C(O)C(Cc1ccc(O)cc1)N1C(=O)c2c(Cl)c(Cl)c(Cl)c(Cl)c2C1=O (centres undefined)	x	-6.9	x	x	1.9
CCOC(=O)c1sc(NC(=O)OC)c(C(=O)OC)c1C	x	12.1	2.5%	-4.8	-7.0
O=C(O)C1CC=CCC1C(=O)Nc1cccc(Cl)c1 (centres undefined)	-23.3	-0.6	-4.7%	0.2	-0.9
O=C(NCCc1ccccc1)c1ccc(NCC2CCCO2)c([N+](=O)[O-])c1 (centres undefined)	x	-1.0	5.3%	-0.5	3.5
